eIF4H FP inh = inhibitors of RNA binding by human eIF4H; eIF4H fluorescence polarization binding assay; inhibition, % at 35 µM; 290,000 compounds, 0.94% hits; AID 2012;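 active means 50% or more with normal probe brightness, or confirmed in later tests; inconclusive means above 50% with abnormal brightness, or retests that disagree; inactive means below 50% or failed in later tests; about a fifth of its hits are not listed in these tables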;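 further: calls also rest on retests at 20 µM and on dose response follow-up; 0% = protein and probe with vehicle and 100% = probe without protein; strong numbers were not always called active; many hits fall short of the cut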
HIV Env fusion = inhibitors of HIV Env-mediated cell fusion. HeLa-JRFL Env/CEM21 cell fusion, luciferase. inhibition, % at 12.3 µM. 360,000 compounds, 1.1% hits. AID 651610;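 active means mean replicate inhibition score of at least 50 and every replicate individually at or above 50; inconclusive means only one of the two criteria met; inactive means mean below 50 and not all replicates reaching 50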;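 further: 0% = plate neutral controls and 100% = maraviroc near 300 nM; one replicate is shown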
Yeast UUG start = yeast start codon fidelity modulation | S. cerevisiae UUG-firefly luciferase reporter, luminescence/redox ratio | activity score, % at 18.7 µM | 350,000 compounds, 0.13% hits | AID 602363;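 active means replicate mean at a twofold rise or more, about +100% in these data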;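 further: firefly luciferase made from a UUG start codon reports start codon fidelity; reporter light over untreated wells divided by growth signal over untreated wells; some hits fall short of that in this replicate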
Rce1 inhib = inhibitors of yeast Ras-converting enzyme; 290,000 compounds, 0.27% hits; calls only; AID 2563; Q03530; yeast membranes, quenched prenylated peptide cleavage fluorescence;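 active means fall in fluorescence gain of 50% or more versus controls, with final raw signal at or below 3038400; inconclusive means same 50% fall but final raw signal above 3038400; inactive means fall in fluorescence gain under 50%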;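 further: plate controls were neutral control wells for no effect and wells lacking membranes for full effect; tested at 10 µM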
Target sequence (Q03530 whole entry, looked up): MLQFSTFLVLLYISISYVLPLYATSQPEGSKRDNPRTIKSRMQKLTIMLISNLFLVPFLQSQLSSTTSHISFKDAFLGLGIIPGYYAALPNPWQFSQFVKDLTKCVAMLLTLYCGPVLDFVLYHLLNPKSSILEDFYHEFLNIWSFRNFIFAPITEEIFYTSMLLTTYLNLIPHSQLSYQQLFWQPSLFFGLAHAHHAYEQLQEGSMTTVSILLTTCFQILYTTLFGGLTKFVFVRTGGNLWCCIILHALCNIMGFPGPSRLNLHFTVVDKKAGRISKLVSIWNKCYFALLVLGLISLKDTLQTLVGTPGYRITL
CSC inhib = cancer stem cell inhibition. cancer stem cell-like cells viability, luminescence. inhibition, % at 7.5 µM. 300,000 compounds, 1.1% hits;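 active means mean at 75% or more and at least half the replicates too; inconclusive means mean and replicates disagree; tested in HMLE shEcad cells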;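 further: 0% = median of negative and 100% = median of positive control wells; the first replicate is given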
MT1-MMP act inh = inhibitors of human MT1-MMP activation; 360,000 compounds, 0.061% hits; GFP/RFP ratio change, % at 20 µM; AID 651647; HT1080 RFP-PRO-GFP cells, GFP/RFP ratio fluorescence, overnight; percent of plate control window, DMSO zero; P50281;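 active means GFP/RFP ratio change of at least 30% with cell ATP level not reduced by more than half and red fluorescence within 50% of control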; further: strong numbers were not always called active
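system = RFP-PRO-GFP reporter HT1080 cells | dosing = 20 µM single dose, 1% DMSO | timing = overnight cell settling, then overnight compound exposure, 37 °C, 5% CO2 | read-out basis = GFP/RFP fluorescence ratio | controls = DMSO and RFP-L50D-GFP cell wells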
PABP FP inh = blocks human PABP binding to poly(A) RNA. P11940. fluorescence polarization. inhibition, % at 35 µM. 290,000 compounds, 1% hits. AID 2014;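 active means 50% or more with normal probe brightness, or confirmed in later tests; inconclusive means above 50% with abnormal brightness, or retests that disagree; inactive means below 50% or failed in later tests; about a fifth of its hits are not listed in these tables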;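 further: calls also rest on retests at 20 µM and on dose response follow-up; controls were probe without protein and protein plus probe with vehicle; some compounds called inactive have numbers as strong as hits; many hits fall short of the cut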
eIF4H FP inh retest = also measured in eIF4H FP inh; calls as there; inhibition, %; compound at 20 µM; confirmation average;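 mean of two retest wells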
PABP FP inh retest = also measured in PABP FP inh; calls as there; inhibition, %; compound at 20 µM; confirmation repeats;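 mean of two retest wells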
MT1-MMP act inh RFP = recorded beside MT1-MMP act inh, whose call it bears; RFP signal change, %; measured here: RFP expression control read;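 0 = vehicle wells; hits needed this value within 50% of zero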
* hit, by the source's call; i = inactive; ? = inconclusive; nt = not tested or not shown; + = active, no number.

SMILES	eIF4H FP inh	HIV Env fusion	Yeast UUG start	Rce1 inhib	CSC inhib	MT1-MMP act inh	MT1-MMP act inh RFP	PABP FP inh	others
Cc1ccc(NC(=O)CSc2nnc(C)c(=O)[nH]2)cc1C	1	-35	nt	i	nt	0	5	-4
CCN(CC)c1ccc(CN(C(=O)c2cccs2)C2CCS(=O)(=O)C2)cc1 (centres undefined)	nt	37	nt	i	-3	-1	2	nt
CCCn1c(N)c(N(CCOC)C(=O)c2ccc(N(C)S(=O)(=O)c3ccc(C)cc3)cc2)c(=O)[nH]c1=O	nt	2	-13	i	8	3	4	nt
CC(C)NC(=O)CSc1nc(N)c(NC(=O)c2ccccc2F)c(=O)[nH]1	-4	4	nt	i	-1	3	7	10
O=C(CSc1ccc2nnc(-c3cccnc3)n2n1)Nc1ccccc1	-13	nt	-19	i	9	0	-1	-5
CC(C)(C)c1ccc(S(=O)(=O)N2CCC(CO)(CC3CCCCO3)CC2)cc1 (centres undefined)	-6	19	nt	i	-3	-7	-6	1
N/C(Cc1ccc([N+](=O)[O-])cc1)=N\OC(=O)CC1CCCCC1	-4	8	nt	i	-13	2	4	5
COc1ccc(C2(c3ccc(OC)cc3)NC(=O)N(CC(=O)Nc3cc(C)on3)C2=O)cc1	nt	-5	-4	nt	-20	6	-4	nt
Cc1ccc(S(=O)(=O)N2CCN(CC(=O)Nc3ccc(N4CCOCC4)cc3)CC2)cc1C	5	nt	-6	i	-4	-1	0	-1
COc1ccc(N2C(=O)C3CCCN3C2=S)cc1 (centres undefined)	-10	-3	-13	i	-20	-4	-3	-5
O=C(NCc1ccccc1)C(=O)NCC1COc2ccccc2O1 (centres undefined)	0	nt	-17	i	50	3	-7	-1
O=c1[nH]c(/C=C/c2ccccc2Cl)c([N+](=O)[O-])c(=O)[nH]1	-6	7	-10	i	nt	-6	-6	-1
COc1ccccc1Nc1nc(N)nc(CN2CCN(Cc3ccccc3)CC2)n1	4	-6	-35	i	1	3	1	7
CCn1cc(C(=O)N(CCC(C)C)c2c(N)n(Cc3ccccc3)c(=O)[nH]c2=O)c(=O)c2ccc(C)nc21	2	-13	-7	i	1	-4	0	-10
O=C(Nc1ccccc1C(F)(F)F)c1cc(-c2ccc(O)cc2)on1	-14	-45	nt	i	3	2	-3	1
C=CCOc1ccccc1CN1CCCN(C)CC1	-3	-6	-6	i	0	2	0	-8
COc1ccc(N2CC(C(=O)N/N=C/c3cccs3)CC2=O)cc1 (centres undefined)	-6	8	nt	i	-2	-68	-11	5
CC(C)OCC1CC(CC(=O)NC(=S)Nc2cccc([N+](=O)[O-])c2)C(=O)O1 (centres undefined)	-6	nt	-1	i	15	-6	-2	-10
COc1ccc(-n2c(C)nc3c(cnn3-c3ccc(Cl)cc3)c2=O)cc1	-5	32	-17	i	-8	-1	-24	-2
CN(C)S(=O)(=O)N1CCN(C(=O)c2cccc(Br)c2)CC1	-3	nt	-12	i	4	1	0	-5
CCOc1ccc(S(=O)(=O)N2CCC(C(=O)NCCc3ccccc3)CC2)cc1	-10	5	-9	i	-10	0	-2	7
O=[N+]([O-])c1c(O)c(Cl)cc(Cl)c1Cl (tested in a mixture with another compound)	nt	9	-8	nt	nt	3	3	nt
Cc1ccc(NC(=O)C2CCN(C(=O)NCc3ccccc3)CC2)cc1C	-9	-3	-18	i	nt	-1	-1	-16
COc1ccc(-c2oc(=O)c3cc(OC)c(OC)cc3c2C#CC2(O)CCCCC2)cc1	nt	-10	3	nt	5	4	2	nt
COc1cccc(C(=O)CC(=O)C(=O)Nc2cc(Cl)c(OC)cc2OC)c1	12	-2	-6	i	-5	3	4	5
CC1CCc2c(sc3nc(CN4CCN(S(=O)(=O)c5ccccc5[N+](=O)[O-])CC4)[nH]c(=O)c23)C1 (centres undefined)	-8	13	-14	i	1	-4	-3	0
COc1ccc(OC)c(NC(=O)CCNC(=O)c2ccco2)c1	2	6	-7	i	-9	1	1	5
NC(N)=Nc1ccc(N=C(N)N)cc1	-4	0	-3	i	1	-4	1	9
CCn1cc(C(=O)N[C@@H](C)C(=O)NCCCn2ccnc2)c(=O)c2cc3c(cc21)OCO3	-7	0	0	i	-6	0	-1	-15
O=C(CN(c1cccc(Br)c1)S(=O)(=O)c1ccccc1)N/N=C/c1cc([N+](=O)[O-])ccc1O	nt	-2	-21	i	23	2	-8	nt
Cc1cc(C)cc(NC(=O)N(CCC#N)Cc2cccs2)c1	-7	20	1	i	-6	-4	-1	-12
COc1ccc(-n2c(C)cc(-c3csc(NC(=O)c4ccc(S(=O)(=O)N(C)C)cc4)n3)c2C)cc1	31	16	-15	i	-6	-16	-2	-22
Cc1ccc(-c2cc(C(=O)Nc3c(C)n(C)n(-c4ccccc4)c3=O)no2)cc1	4	13	-19	i	-9	1	5	?	eIF4H FP inh retest=3
Nc1c(N=O)c(=O)[nH]c(=O)n1-c1ccccc1	nt	-8	nt	i	2	3	1	nt
O=S(=O)(c1ccccc1)c1nc(-c2ccco2)oc1Nc1ccccc1	-8	16	nt	i	0	-4	-6	-5
O=C(COC(=O)CCSc1ccccc1)NCc1ccc(F)cc1	-5	10	17	i	-18	-1	-4	-2
O=C(CSc1nnnn1-c1cccc2c1CCCC2)N1CCOCC1	-12	nt	nt	i	-21	7	2	-6
O=C(COC(=O)c1cccc(S(=O)(=O)N2CCOCC2)c1)NCCc1ccccc1	-1	8	10	i	-2	0	0	-7
O=Cc1cccn1-c1ccccc1	0	nt	-13	i	-13	1	6	10
CCn1cc(CN2CCC(Oc3ccc(C(=O)N4CCCCC4)cc3)CC2)cn1	1	-35	-8	i	14	-3	-2	2
CCCSc1nc2c3c(sc2c(=O)[nH]1)CC(C)(CC)OC3 (centres undefined)	-11	10	nt	i	16	-2	3	-7
C=CCN1C(=Nc2ccccc2)SC/C1=C\C(=O)OC	-12	nt	-16	i	-2	-4	-1	-16
O=C(CS(=O)(=O)Cc1ccccc1)NCc1ccco1	0	-5	nt	i	3	-4	4	9
CCN(CC)CCOCCOC(=O)C(CC)(CC)c1ccccc1	9	20	7	i	27	-1	0	5
CCOC(=O)CCCCC(=O)NC(CO)C(=O)NC (centres undefined)	-10	nt	-2	i	-8	-2	2	18
NNC(=O)c1cccc(O)c1	2	?	2	i	6	1	4	-10
Cc1ccc(/C=C/C(=O)Nc2nnc(SCc3ccc(C#N)cc3)s2)o1	46	13	-30	i	57	-4	1	1
Cc1ccc2c(CC(=O)N(C)c3c(N)n(Cc4ccccc4)c(=O)[nH]c3=O)coc2c1	nt	-14	-13	i	-6	-1	-2	nt
O=C(COC(=O)c1cc(S(=O)(=O)N2CCOCC2)ccc1F)NCc1ccco1	-9	-21	-14	i	nt	-1	4	-14
CN(C)C(=O)COc1ncnc2sc(-c3ccccc3)cc12	-8	-17	8	i	-14	1	4	-4
COCCOc1cc(N(CC(=O)N(C)C)S(=O)(=O)c2ccccc2)c(Cl)cc1Cl	-5	2	nt	i	-5	1	-1	-6
Cc1nc2ccc(NC(=S)N3CCCC3)cc2nc1C	3	13	nt	i	5	3	3	1
C/C=C\C=C\C(=O)Nc1cccc(C2=NOC3(C2)C[C@@H](C(N)=O)N(C(=O)C(c2ccccc2)c2ccccc2)C3)c1 (some centres undefined)	-8	-22	-6	i	nt	8	4	3
N#Cc1ccc(Cl)cc1NC(=O)COC(=O)c1ccc2c(c1)OCCO2	-14	-1	-9	i	-13	-3	2	8
N#Cc1cccc(NC(=O)COC(=O)c2ccccc2Sc2ccccc2C#N)c1	-2	8	-16	i	7	1	8	6
Cc1ccc(-n2cc[nH]c2=S)cc1C	4	nt	nt	i	-18	-2	8	-5
COc1cccc(Cn2cc(C(=O)NCCN(C)C)nn2)c1	-1	-14	nt	i	-6	2	3	7
CC1(C)CC(=O)C(C(=S)Nc2ccc(F)cc2)=C(NCCN2CCOCC2)C1	-2	17	6	i	-8	-1	1	-6
COC(=O)[C@]1(Cc2ccccc2)N[C@H](CN(C)C(=O)c2ccc(F)cc2)[C@@H]2C(=O)N(Cc3ccccc3)C(=O)[C@@H]21	nt	-141	-18	nt	nt	1	-6	nt
CCOC(=O)C1C2C=CC3(CN(Cc4ccccc4)C(=O)C13)O2 (centres undefined)	1	3	-22	i	-5	-2	-1	3

Further structures follow.
SMILES	eIF4H FP inh	HIV Env fusion	Yeast UUG start	Rce1 inhib	CSC inhib	MT1-MMP act inh	MT1-MMP act inh RFP	PABP FP inh	others
CCN1C(=O)C(CC(=O)Nc2ccc(OC)cc2)N(Cc2cccs2)C1=S (centres undefined)	-2	nt	nt	i	-8	0	-2	5
CCc1nn(CC(=O)NCCCN2CCN(C)CC2)c(=O)c2cc3sc(C)cc3n12	-13	1	-9	i	-28	0	0	-2
COc1cc(-c2nc(-c3ccncc3)no2)cc(OC)c1OC	6	-7	-15	i	5	6	-1	-6
Cc1cc(=O)oc2cc(OCc3cc4c(cc3Cl)OCO4)ccc12	-6	nt	-14	i	-13	1	2	-8
Cc1cc(C)c(OCC(=O)OC(C)C(=O)NC2CC2)c(C)c1 (centres undefined)	0	4	6	i	17	-3	2	0
CCc1nc2ccc(C(=O)N3CCN(S(=O)(=O)CC)CC3)cn2c1N(C=O)CCC(C)C	nt	16	-22	nt	nt	0	-1	nt
CC(C)CCOc1ccc(/C=C2\CCn3c2nc2cc(C(=O)O)ccc2c3=O)cc1	55	-6	nt	nt	nt	6	-5	66	eIF4H FP inh retest=3;PABP FP inh retest=2
O=C(CCS(=O)(=O)c1ccccc1)N1CCOCC1	-8	-1	nt	i	-7	2	3	5
CS(=O)(=O)c1ccc2nc(NC(=O)CCS(=O)(=O)c3ccccc3)sc2c1	7	3	2	i	29	-4	-3	3
Nc1nccnc1C(=O)OCC(=O)N1CCN(S(=O)(=O)c2ccc(Cl)cc2)CC1	nt	-81	nt	?	1	-7	1	nt
CN1C(=O)CC(C(=O)Nc2ccccc2F)SC1=Nc1ccc2c(c1)OCO2 (centres undefined)	0	-19	nt	i	10	-3	-5	-8
CN(Cc1nc2c(s1)CCCC2)C(=O)CCc1nnc(-c2ccc3c(c2)OCO3)o1	-5	2	-20	i	-1	-2	2	12

Arranged by SMILES length (lowest first): part of the list above.
SMILES	eIF4H FP inh	HIV Env fusion	Yeast UUG start	Rce1 inhib	CSC inhib	MT1-MMP act inh	MT1-MMP act inh RFP	PABP FP inh	others
COc1ccc(OC)c(NC(=O)CCNC(=O)c2ccco2)c1	2	6	-7	i	-9	1	1	5
CC(C)CCOc1ccc(/C=C2\CCn3c2nc2cc(C(=O)O)ccc2c3=O)cc1	55	-6	nt	nt	nt	6	-5	66	eIF4H FP inh retest=3;PABP FP inh retest=2
Cc1ccc(-c2cc(C(=O)Nc3c(C)n(C)n(-c4ccccc4)c3=O)no2)cc1	4	13	-19	i	-9	1	5	?	eIF4H FP inh retest=3

More structures follow.
SMILES	eIF4H FP inh	HIV Env fusion	Yeast UUG start	Rce1 inhib	CSC inhib	MT1-MMP act inh	MT1-MMP act inh RFP	PABP FP inh	others
CC1CCC(NC(=O)Nc2cccs2)CC1 (centres undefined)	-1	-73	-25	i	-12	1	8	13
CCCCOc1ccc(NC(=O)c2cc(F)c(F)cc2Cl)cc1	0	-44	-6	i	4	8	4	10
Cc1cc(NC(=O)COc2ccccc2)n(-c2ccccc2)n1	-9	nt	16	i	-10	-5	1	-4
COc1ccc(OCc2cc(C(=O)NC(C)c3nc(C)cs3)no2)c(Cl)c1 (centres undefined)	nt	-21	-8	nt	nt	0	2	nt
CCOc1ccccc1CNC(=O)c1cc2occc2n1C	?	6	-4	+	-2	-4	-3	83*	PABP FP inh retest=77*

Bioassay records deposited in PubChem BioAssay by several laboratories.
